Assay outcomes (PubChem BioAssay)
Sfp inh: blocks B. subtilis Sfp PPTase activity | Q9F4F7 | Biochemical Sfp PPTase activity, qHTS | Potency, µM, inactives show max response, negative = inhibition, usual class: inhibitors | hit rate 3.5% among 310,000 | AID 1490; active = well fitted inhibition curve with a large enough effect; inconclusive = small, poorly fitted or top-dose-only effect, or another doubt; inactive = no such curve, though single readings can be large or run the other way;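 also: the enzyme is Sfp with the accession as filed and its product quenches rhodamine fluorescence; potency is read from the fitted curve at half-maximal effect; 0% = enzyme reaction without inhibitor and -100% = no enzyme wells; top concentration of the series not given in the record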
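Reaction rates are the 30-min fluorescence difference (ex 525, em 598 nm) in wells containing 15 nM Sfp, 5 uM rhodamine-CoA and 12.5 uM BHQ-2-YbbR at pH 7.6 with 10 mM MgCl2.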
TRPV1 potentiator: potentiators of human vanilloid receptor 1 (TRPV1) | hit rate 0.02% among 320,000 | potentiation, % at 8.33 µM | TRPV1-expressing cells, Fluo-8 calcium influx, capsaicin EC20 potentiation; host cell line not named in the record; control for the full effect not named in the record | Q8NER1; active means potentiation above 80%; inconclusive means 30% to 80%; inactive means below 30%; also: 0% is about no effect
Target sequence (Q8NER1 whole entry, looked up): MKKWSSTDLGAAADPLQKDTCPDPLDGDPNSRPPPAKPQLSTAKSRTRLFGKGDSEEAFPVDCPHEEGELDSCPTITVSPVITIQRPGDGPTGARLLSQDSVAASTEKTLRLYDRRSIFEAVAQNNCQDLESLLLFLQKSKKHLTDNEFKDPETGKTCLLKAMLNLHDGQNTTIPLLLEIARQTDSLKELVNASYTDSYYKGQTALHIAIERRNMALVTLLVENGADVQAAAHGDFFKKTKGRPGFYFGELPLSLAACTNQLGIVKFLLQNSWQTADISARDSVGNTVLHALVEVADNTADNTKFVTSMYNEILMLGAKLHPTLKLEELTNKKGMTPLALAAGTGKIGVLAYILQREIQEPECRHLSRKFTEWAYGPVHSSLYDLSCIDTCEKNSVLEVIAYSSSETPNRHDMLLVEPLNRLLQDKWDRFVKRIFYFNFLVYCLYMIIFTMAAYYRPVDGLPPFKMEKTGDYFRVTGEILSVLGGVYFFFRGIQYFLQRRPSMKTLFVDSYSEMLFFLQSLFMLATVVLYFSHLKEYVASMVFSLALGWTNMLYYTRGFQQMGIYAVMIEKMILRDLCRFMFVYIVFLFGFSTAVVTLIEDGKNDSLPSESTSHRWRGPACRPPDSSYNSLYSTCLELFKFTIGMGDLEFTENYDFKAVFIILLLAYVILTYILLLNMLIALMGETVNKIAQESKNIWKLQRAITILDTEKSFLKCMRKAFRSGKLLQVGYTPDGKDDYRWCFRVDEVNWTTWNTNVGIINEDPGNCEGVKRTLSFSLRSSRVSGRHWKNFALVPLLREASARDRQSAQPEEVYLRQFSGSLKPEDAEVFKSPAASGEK
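Fluo-8 calcium influx in TRPV1-expressing cells, kinetic read (ex 480/em 520 nm). Compound added and read 3 min for agonist activity, followed by capsaicin at EC20 final and 2 min further read for enhancement.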
Menin MLL FP FL: displaces fluorescein MLL peptide from human menin | Fluorescence polarization, fluorescein-MLL peptide displacement from menin | FP activity change, % at 61.4 µM | 290,000 tested, under 10 active; inconclusive = falling polarisation curve, or a change in total fluorescence; inactive = total fluorescence flat and polarisation flat or rising; no compound was filed as active; the % refers to the polarisation; negative = inhibition;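 also: % of control where 0% means no effect; inhibitors lower the polarisation; unlabelled MLL peptide was the positive control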
CtBP-E1A inh: inhibitors of CtBP/E1A interaction; AlphaScreen GST-E1A/His-CtBP binding, 1536-well; active compounds read low; control for the full effect not named in the record; activity change, % (test concentration not listed); hit rate 0.49% among 340,000; AID 651724; in the data active means activity change below about -65%; inconclusive means about -30% to -65%; inactive means above about -30%; also: % is scaled to controls: 0 for no effect and ±100 for the full control effect
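Protein mix (5X: 125 nM each GST-E1A, His-CtBP) was incubated with pinned compound 2 h at 37 deg C in dark, in 50 mM Tris pH 8.0 buffer with 300 mM NaCl. Glutathione donor and nickel acceptor beads followed; AlphaScreen signal read after 1 h.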
ClpP mod: qHTS Assay for Activators of ClpP. AID 651965, 2013. Potency, µM (series often up to 57.5 µM), without a hit: at the top dose activity change, negative = active. hit rate 1.9% among 340,000. ATP-dependent Clp protease proteolytic subunit (Bacillus subtilis (strain 168)), P80244. purified B. subtilis ClpP, FRET peptide cleavage, 20 min; active = well fitted falling curve with a large enough effect; inconclusive = small, poorly fitted or top-dose-only effect; inactive = no such curve, though single readings can be large or run the other way; also: potency is read from the fitted curve at half-maximal effect; the source files actives as falling curves though it sought activators and does not explain the sign; nearly all actives have a fitted effect of over 65% in size; many hits overshoot -100%
Target sequence (P80244 whole entry, looked up): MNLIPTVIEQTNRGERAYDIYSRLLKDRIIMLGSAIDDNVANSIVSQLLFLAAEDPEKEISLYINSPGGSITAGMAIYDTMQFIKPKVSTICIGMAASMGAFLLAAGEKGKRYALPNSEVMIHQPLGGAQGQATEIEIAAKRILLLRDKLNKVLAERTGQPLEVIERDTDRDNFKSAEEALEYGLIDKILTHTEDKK
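Buffer: 100 mM Tris/HCl pH8, 100 mM KCl, 0.05% low protease BSA, 2.5% glycerol, 0.01% Tween-20. ClpP 10 microg/mL final; 20 min RT; delta FRET normalized to ADEP and DMSO controls.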
gsp antag: gsp mutant antagonism; hit rate 0.4% among 340,000; Potency, µM (series often up to 76.9 µM), for the others: at the highest dose activity change, negative = inhibition, most hits filed as inhibitors; gsp-mutant cells, cAMP HTRF, 30 min; control for the full effect not named in the record; active = falling curve of any shape with a large fitted effect; inconclusive = falling curve, mostly with a smaller effect; inactive = flat or rising curve; cell line not stated here;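 also: intracellular cAMP measured with PDE inhibitor Ro 20-1724 present during compound exposure; potency is read from the fitted curve at half-maximal effect; % is scaled to controls: 0 for no effect and ±100 for the full control effect; nearly all actives have a fitted effect of over 65% in size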
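Measurement of cellular cAMP by homogeneous time-resolved fluorescence following a 30 min compound exposure at 37C. The PDE inhibitor […] was present throughout; the assay buffer was DPBS with 0.05% BSA and 0.005% Tween 20.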
gsp agonist: gsp mutant agonism | gsp mutant cells, cAMP HTRF, 30 min; control for the full effect not named in the record | Potency, µM (doses to about 76.9 µM), for inactives: at the top dose activation (cAMP increase), usual class: activators | hit rate 0.13% among 340,000; active = well fitted activation curve with a large enough effect; inconclusive = small, poorly fitted or top-dose-only effect, or another doubt; inactive = no such curve, though single readings can be large or run the other way; cell line not stated here;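 also: phosphodiesterase inhibitor Ro 20-1724 added with compounds to block cAMP breakdown; potency is read from the fitted curve at half-maximal effect; nearly all actives have a fitted effect of over 60% in size; about a fifth of the inactives were tested at one dose only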
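Cells stably selected in G418 were plated at 2000/well, grown 16-24 hr, then given compounds in DMSO with the PDE inhibitor […] (300 uM solution added) for 30 min at 37C; cAMP was read by HTRF.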
* marks the source's active call; other numbers are inactive results; ? = inconclusive; / = no result given; [ ] = remark or other dose.

structure	TRPV1 potentiator	Menin MLL FP FL	gsp antag	ClpP mod	CtBP-E1A inh	Sfp inh	gsp agonist
N#CCC(=O)N/N=C/c1cc(Br)ccc1OCc1cccc2ccccc12	21	12	-12%	-8.1%	-4	6%	?
Cn1nc([N+](=O)[O-])nc1Sc1nnnn1-c1cccc(C(=O)O)c1	13	0.3	2%	-2.0%	2	-19%	22%
O=C(Nc1cccnc1)c1ccco1	8	-2.4	-3%	-0.5%	6	14%	3%
CCCOc1ccc(-c2nc(OC)c3ccccc3n2)cc1	3	-1.2	-3%	32µM*	0	-16%	5%
O=C(C[C@H]1C[C@@H]2c3cc(NC(=O)C4CCC4)ccc3O[C@@H]2[C@H](CO)O1)NC1CCCCC1	/	/	/	3.4%	-4	/	?
COc1ccc(OC)c2sc(NC(=O)c3ccc(Br)s3)nc12	4	-2.0	6%	1.5%	0	18%	?
C=CCn1c(=S)[nH]c2sccc2c1=O	15	-2.3	-1%	/	-2	-38%	7%[15.4 µM]
COc1cc2c(cc1OC)C(=S)NC(C)(C)C2	28	-0.6	10%	-21%	3	-21%	-43%[inhibitor]
CSc1nnc(-c2ccccc2)n1C	-2	-0.3	2%	0.4%	-2	12%	-13%
O=C(CNCc1ccc(F)cc1)Nc1ccc(C(=O)N2CCCCC2)cc1	3	-3.3	-2%	/	4	?	3%[15.4 µM]
CS(=O)(=O)Nc1nnc(CCc2ccccc2)s1	6	-0.5	-8%	/	9	12%	-61%[inhibitor]
O=C(O)c1ccc(Sc2nnc(-c3cccc(Br)c3)o2)c([N+](=O)[O-])c1	3	-0.2	-14%	1.4%	0	0%	-26%
Cc1ccccc1Nc1nc(N)nc(COC(=O)c2cccc(S(=O)(=O)N(C)C)c2)n1	10	4.1	-19%	1.2%	0	-15%	-44%[inhibitor]
Cc1cc2[nH]c(=O)c(=O)[nH]c2cc1S(=O)(=O)Nc1cccc(F)c1	2	-5.9	3%	-14%	/	3%	-4%
CCc1ccc(-c2cn3c(n2)SCC3)cc1	-10	6.2	5%	/	-7	9%	-1%
COc1cc(/C=C2\SC(=Nc3ccc(Cl)c(C(=O)O)c3)NC2=O)c(Br)c(Br)c1O	-5	?	-7%	/	?	8%	20%
C#CCn1c(=NC(=O)c2ccccc2[N+](=O)[O-])sc2cc(S(C)(=O)=O)ccc21	2	4.8	7%	-1.5%	13	-2%	3%
O=C(N1CCC(O)(c2cccnc2)CC1)C12CC3CC(CC(C3)C1)C2	-4	2.8	-16%	0.7%	1	-15%	-11%
O=S(=O)(N/N=C\c1ccc2c(c1)OCO2)c1ccc(F)cc1	12	0.9	-13%	-0.6%	1	14%	32%
Cc1cccc2cc(CN(CCCN3CCOCC3)Cc3nnnn3C(C)(C)C)c(=O)[nH]c12	0	1.2	3%	-8.4%	5	13%	-2%
CN(C)CCNC(=O)Cn1nc(-c2ccc(Cl)cc2)ccc1=O	10	-2.6	13%	-5.5%	0	-13%	-4%
Brc1cc2c(cc1C1Nc3ccccc3C3C=CCC31)OCO2 (centres undefined)	0	4.2	-3%	1.0%	2	-7%	-3%
Cn1c(SCC(=O)N2CCc3ccccc3C2)nnc1-c1ccncc1	11	5.4	7%	-0.1%	1	-9%	3%[15.4 µM]
O=C1C=C(NCc2ccc(Cl)cc2Cl)C2(CCCCC2)O1	-3	1.6	?	1.2%	12	13%	-17%
O=C(NNC1=NCCC1)c1cccc(S(=O)(=O)N2CCCC2)c1	10	4.6	1%	/	0	19%	-1%
Cc1cc(C)c(NC(=O)CS(=O)CC(=O)NCCCc2ccccc2)c(C)c1 (centres undefined)	5	3.1	-7%	0.9%	13	32%[activator]	29%
CCCCCc1nnc(NC(=O)CN2C(=O)C3CCCCC3C2=O)s1 (centres undefined)	6	/	2%	-2.1%	-23	9%	0%
NC(=O)C1(N2CCCCC2)CCN(Cc2ccccc2Cl)CC1	?	3.5	4%	-8.3%	-8	13%	-4%
Cc1ccc(NC(NC(=O)c2ccccn2)C(Cl)(Cl)Cl)cc1 (centres undefined)	/	3.7	-7%	-0.9%	-6	1%	-34%[inhibitor]
CCOP1(=O)C=C(C(C)(C)C)OC1c1ccc(F)cc1 (centres undefined)	10	2.9	4%	0.2%	0	15%	-5%
CCOC(=O)C(C(=O)N(C)Cc1ccccc1)C1CCCCC1 (centres undefined)	-14	0.8	-8%	-0.2%	/	4%	-8%
Cc1ccc(-c2nn(-c3ccccc3)cc2C(=O)O)o1	-2	?	/	/	/	-101%	/
CC(C)NC(=O)C(=O)NC1CCCCCC1	-3	-3.6	3%	2.2%	5	14%	16%
Cc1cccc(NC(=O)C2CCCN(C(=O)NCc3ccccc3)C2)c1C (centres undefined)	7	/	-18%	0.5%	-9	5%	-21%[15.4 µM]
CCCn1c(=O)c2[nH]cnc2n(-c2ccccc2C)c1=O	-5	2.7	14%	0.4%	4	3%	11%[15.4 µM]
Fc1ccc2nc3n(c2c1F)CCCCCC3	-9	2.2	3%	-9.8%	3	13%	-41%[inhibitor]
COc1ccc(S(=O)(=O)N2CCC(C(=O)NCCc3ccc4c(c3)OCO4)CC2)cc1	-34	13	-2%	-1.0%	-1	3%	-31%[inhibitor]
COc1ccc(C(=O)C2CCCN(Cc3cccc4c3OCO4)C2)cc1OC (centres undefined)	-1	-11	-4%	-11%	/	8%	-9%
Cc1ccc(S(=O)(=O)N2CCCCC2)cc1C(=O)N1C(C)CCCC1C (centres undefined)	/	/	-5%	-1.1%	-1	/	4%
Cc1c(NC(=O)CSc2ncnc3ccccc23)c(=O)n(-c2ccccc2)n1C	18	-0.8	-5%	-28%	2	24%	3%[15.4 µM]
Cn1c(=O)n(C)c2cc(N3CCOCC3)c(NC(=O)c3ccc(F)cc3)cc21	-14	/	9%	-2.5%	0	4%	14%
Cc1csc2nc(O)c(C(=O)NCCCN3CCCC3=O)c(=O)n12	5	/	9%	/	6	/	31%[15.4 µM]
CCOC(=O)CNC(=O)Cn1cnc2c(nnn2-c2ccc(C)cc2)c1=O	-1	3.0	8%	1.8%	41	10%	?
N#Cc1cccc(-n2nnnc2-c2ccccn2)c1	0	-0.3	-7%	-0.3%	-1	5%	1%
N=C1C(c2ccccc2)=C(O)CN1c1cccc(S(=O)(=O)N2CCOCC2)c1	0	-1.4	-5%	-0.2%	0	23%	0%
Cc1cc(C(F)F)n2nc(C(=O)Nc3ccc(F)cc3F)nc2n1	6	-0.9	-4%	-0.1%	5	-4%	-2%
OCCNc1nc(C2CC2)nc2c1nnn2Cc1ccccc1Cl	-21	-1.7	-1%	0.0%	1	3%	11%
Cn1c(-c2c(N)n(-c3ccccc3)c3nc4ccccc4nc23)nc2ccccc21	14	?	-9%	-4.3%	18	-2%	29%
O=C(NC(=S)NNC(=O)c1ccccc1O)c1ccccc1	2	-3.7	-6%	/	-94*	10%	3%
O=C(OCC(=O)N1CCN(c2ccccc2)CC1)c1ccc(O)cc1O	15	/	?	-0.3%	4	-7%	15%
CC(C)Nc1ncnc2c1nnn2Cc1ccccc1	-2	1.5	5%	-3.3%	3	14%	1%
COc1cc(OC)c(C(=O)NC2CCCCCC2)cc1OC	-4	3.9	-5%	-11%	0	9%	0%
Cc1ccc(C)c(C(=O)CCC(=O)Nc2cccnc2)c1	-9	1.0	14%	-2.9%	-2	12%	-1%
Brc1ccccc1-c1csnn1	7	/	9%	5.8%	1	7%	-2%[15.4 µM]
O=C(C1=C(O)C(=O)N(CCN2CCOCC2)C1c1cccc(F)c1)c1cc2ccccc2o1 (centres undefined)	6	/	6%	-0.6%	/	2%	7.1µM*
COc1ccc([N+](=O)[O-])cc1N(CC(O)CN1CCCCC1)S(=O)(=O)c1ccccc1 (centres undefined)	8	3.8	5%	/	7	6%	0%[15.4 µM]
Cn1nnc(C(O)CN2CCOCC2)n1 (centres undefined)	3	1.9	-8%	-1.5%	2	0%	-21%
Cc1nnc2ccc(-c3ccc(NS(=O)(=O)c4ccccc4[N+](=O)[O-])cc3)nn12	10	/	9%	-3.6%	/	/	?
COc1cccc(C(=O)Nc2ccc(NC(=O)C3C4C=CC(C4)C3C(=O)O)cc2)c1 (centres undefined)	-5	/	5%	-1.7%	-6	-23%	4%
CCc1c(C)sc(NC(=O)c2ccccc2[N+](=O)[O-])c1C(N)=O	-7	-1.3	3%	1.7%	-4	-21%	-17%

Following part:
structure	TRPV1 potentiator	Menin MLL FP FL	gsp antag	ClpP mod	CtBP-E1A inh	Sfp inh	gsp agonist
COc1ccc(NCC(=O)NN=C2CCS(=O)(=O)c3ccc(F)cc32)cc1	/	/	4%	1.8%	-3	/	-10%[15.4 µM]
Nc1nonc1-n1nnc(C(=O)N/N=C/c2cccc(Cl)c2)c1CSc1ccccc1	16	2.5	-34%	0.6%	3	17%	-1%[15.4 µM]
CC(=O)NCC1CCCN(C(=O)c2oc3c(F)cccc3c2C)C1 (centres undefined)	-20	0.9	7%	0.5%	/	10%	0%
Cc1nc2c(cnn2-c2ccccc2Cl)c(=O)n1-c1ccc(N2CCC(C)CC2)cc1	?	0.6	35µM*	0.4%	-2	6%	5%
Cc1cc(Nc2ccc(F)cc2)nc(N)n1	-6	6.0	11%	-1.8%	3	15%	?
O=C1C(=Cc2ccccn2)CCc2ccccc21	/	/	/	1.8%	-7	/	?
CC(=O)Nc1ccc(NC(=O)CSCc2cnn(-c3ccccc3)c2-n2cccc2)cc1	-4	6.9	-22%	-0.5%	-7	2%	27%
Nc1nnnn1/N=C/c1ccccc1OCc1ccc(Cl)cc1	15	1.2	3%	?	-7	9%	-4%
Nc1ccccc1SC1CC(=O)N(c2ccc(Cl)c(Cl)c2)C1=O (centres undefined)	4	6.0	-17%	0.7%	/	4%	-15%
Cc1cccc(NS(=O)(=O)c2cccc(C(=O)Nc3cccc(C(=O)O)c3)c2)c1	-1	3.9	0%	-1.7%	/	10%	-12%
